# Screening results: PubChem, National Center for Advancing Translational Sciences (NCATS)
# Rango-impB inh: inhibitors of Rango-importin beta complex formation | Potency, µM (titrated, usually from 92.2 µM), for the others: top-dose inhibition of complex formation | 340,000 tested, 0.031% active | Rango CFP/YFP FRET sensor + importin beta, 45 min; active = rising FRET ratio curve, often small or poorly fitted; inconclusive = mostly compound fluorescence or quenching in the first reads; inactive = flat curves in all reads;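 also: potency is read from the fitted curve at half-maximal effect; 0% = DMSO wells and 100% = buffer wells lacking importin beta; nearly all actives have a fitted effect of over 15% in size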
# Target sequence (Q14974 whole entry, looked up): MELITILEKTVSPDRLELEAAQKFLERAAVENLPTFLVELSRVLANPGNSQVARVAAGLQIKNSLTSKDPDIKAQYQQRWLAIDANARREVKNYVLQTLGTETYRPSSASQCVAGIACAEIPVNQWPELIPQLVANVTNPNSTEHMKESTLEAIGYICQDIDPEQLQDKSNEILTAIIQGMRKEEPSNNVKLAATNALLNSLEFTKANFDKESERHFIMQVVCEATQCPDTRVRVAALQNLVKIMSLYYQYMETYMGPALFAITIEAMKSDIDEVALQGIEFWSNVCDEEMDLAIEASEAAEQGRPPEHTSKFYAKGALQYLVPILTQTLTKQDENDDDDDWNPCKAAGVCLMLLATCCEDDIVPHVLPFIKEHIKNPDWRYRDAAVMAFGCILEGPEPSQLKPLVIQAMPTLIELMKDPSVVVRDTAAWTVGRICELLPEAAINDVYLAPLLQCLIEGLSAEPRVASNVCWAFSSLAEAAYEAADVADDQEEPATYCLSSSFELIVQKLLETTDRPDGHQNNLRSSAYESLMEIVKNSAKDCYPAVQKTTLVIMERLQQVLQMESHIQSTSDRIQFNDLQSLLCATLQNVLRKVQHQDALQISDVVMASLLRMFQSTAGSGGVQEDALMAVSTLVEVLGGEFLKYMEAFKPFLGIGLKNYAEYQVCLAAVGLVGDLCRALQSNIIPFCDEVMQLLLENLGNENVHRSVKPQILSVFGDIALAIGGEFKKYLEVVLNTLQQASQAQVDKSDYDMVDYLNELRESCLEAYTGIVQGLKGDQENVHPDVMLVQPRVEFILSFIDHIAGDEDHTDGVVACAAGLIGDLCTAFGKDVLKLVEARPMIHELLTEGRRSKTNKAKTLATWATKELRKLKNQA
#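 FRET biosensor Rango (snurportin 1 IBB between N-terminal EYFP and C-terminal Cerulean), 50 nM in PBS/1 mM DTT/0.02% Tween-20/0.1% BSA, preincubated 5 min RT with compound; 0.125 microM importin beta added, 45 min RT, CFP/YFP FRET ratio read.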
# Rango release inh: inhibitors of RanGTP-induced Rango-importin beta complex dissociation; 340,000 tested, 0.071% active; Potency, µM (titrated, usually from 46.1 µM), for the others: at the top dose activity change, negative = inhibition; AID 540253; Biochemical FRET Rango-importin beta, RanGTP-induced dissociation; O95149+P62826; active means falling FRET ratio curve, often poorly fitted, with flat reads before Ran was added; inconclusive means other falling curves, or compound fluorescence or quenching; inactive means flat or rising ratio curve;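 also: potency is read from the fitted curve at half-maximal effect; % of control where 0% means no effect; nearly all actives have a fitted effect of over 45% in size; -100% = wells without RanGTP and RCC1; the record marks most hits as doubtful in a second field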
#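 Compounds sat 5 min at room temperature with 0.1 uM Rango biosensor plus 0.25 uM importin beta, then FRET pre-read. RanGTP-RCC1 (0.6 uM Ran, 2mM GTP, 0.2 uM RCC1) added for 45 min, and the CFP/YFP post-read measured blocked complex dissociation.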
# miR-21 reporter: miR-21 reporter, rising signal. HeLa miR-21 FLuc reporter, luciferase, 48 h. Potency, µM (doses to about 38.3 µM), inactives show at the top dose reporter change, positive = more light. 340,000 tested, under 10 active; active = well fitted rising curve with a large enough effect; inconclusive = small, poorly fitted or top-dose-only effect; inactive = no such curve, though single readings can be large or run the other way;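 also: % of control where 0% means no effect; miR-21 action dims this reporter so a rising signal means less miR-21 action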
#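 HeLa miR-21-FLuc reporter line, endogenous miR-21; 2000 cells/well in DMEM/10% FBS; compound titration up to ~40uM final, 48 h, 37 degree Celsius; luciferase detection reagent, 15 min lysis, CCD luminescence.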
# GLA inh pH 4.5: inhibitors of human alpha-galactosidase A at pH 4.5 | 230,000 tested, under 10 active | AID 1467 | activity change, negative = inhibition, % at 105 µM | purified enzyme, 4-MU-alpha-Gal fluorescence, pH 4.5; inconclusive = small, poorly fitted or top-dose-only inhibition, or a rising curve; inactive = flat fitted curve, though single readings scatter; no compound was filed as active;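 also: 0% = full activity with enzyme and -100% = basal without enzyme; dose as in the result columns while the protocol names 77 µM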
# * = called active by the depositor; ? = inconclusive; . = not tested or not shown. Some of the compounds tested; rates above refer to the full screens.
structure,Rango-impB inh,Rango release inh,miR-21 reporter,GLA inh pH 4.5
COc1ccc(N=Nc2ccc(N)nc2N)cc1,-3.6%,-16.3%,-89.9%,-5.9
CC(C)C[C@H](NC(=O)Nc1ccccc1F)C(=O)O,4.9%,3.3%,-2.6%,-2.0
CSCCCNC(=S)N1CCN(S(=O)(=O)c2cccc(C(F)(F)F)c2)CC1,6.4%,0.7%,-1.2%,-1.9
O=C(Nc1nnc(S(=O)(=O)N2CCOCC2)s1)c1ccc(Cl)cc1,-0.7%,17.1%,-4.4%,.
COc1ccc(N2CCN(C(=O)COC(=O)CNC(=O)c3ccccc3)CC2)cc1,0.1%,0.6%,0.3%,.
CCn1c(=O)n(CC)c2cc(N3CCCC3)c(NC(=O)c3ccccc3C)cc21,1.1%,2.5%,-5.5%,.
Cc1cc(C(=O)COC(=O)c2ccc[nH]c2=O)c(C)n1CCc1ccc(F)cc1,-1.5%,4.8%,4.1%,0.2
CCCCCC1CC(CC/C(C)=N/NC(N)=O)C(=O)O1 (stereo not drawn),-2.5%,-1.2%,-1.2%,-5.0
COC(=O)Cn1cnc2c(nnn2Cc2ccc(Cl)cc2)c1=O,2.9%,-12.6%,-1.4%,1.3
Cc1ccc(-c2nc(N)sc2CC(=O)OCC(=O)NCC2CCCO2)cc1 (stereo not drawn),2.9%,-10.6%,1.0%,4.5
CC1=C(C(=O)OC(C)C)C(c2cccs2)C(C(=O)OC(C)C)=C(C)N1,?,-10.8%,7.0%,0.3
O=C1CCCCC(=O)c2ccccc2N1,?,-2.7%,-0.1%,-10.7
O=C1OCC2=C1C(c1ccc3c(c1)OCO3)c1cc3c(cc1O2)OCO3 (stereo not drawn),1.1%,-1.9%,.,.
O=C(CN(Cc1ccco1)S(=O)(=O)c1cccs1)Nc1ccccc1C(F)(F)F,0.4%,1.6%,-3.8%,6.3
O=C1C(=O)N(CCS(=O)(=O)c2ccccc2)c2ccc(F)cc21,0.0%,5.4%,6.1%,.

# A second format for some results above:
Rango-impB inh,Rango release inh,miR-21 reporter,GLA inh pH 4.5,molecule
2.9%,-10.6%,1.0%,4.5,Cc1ccc(-c2nc(N)sc2CC(=O)OCC(=O)NCC2CCCO2)cc1 (stereo not drawn)
?,-10.8%,7.0%,0.3,CC1=C(C(=O)OC(C)C)C(c2cccs2)C(C(=O)OC(C)C)=C(C)N1

# Going on with the list:
structure,Rango-impB inh,Rango release inh,miR-21 reporter,GLA inh pH 4.5
Cc1ccc(N(CC(O)CN2CCCCC2)S(=O)(=O)c2ccccc2[N+](=O)[O-])cc1 (stereo not drawn),1.0%,3.5%,-3.1%,-0.5
CCN1CCN(C(=O)CCCn2c(C)c3cnn(-c4ccccc4)c(=O)c3c2C)CC1,-2.4%,-5.1%,-8.1%,2.7
Cc1ccccc1C(=O)NC(=S)NCCC1=CCCCC1,-0.7%,1.5%,-18.4%,-3.8
Cc1ccc(N2C(=O)C(CN3CCOCC3)C2c2ccccc2)cc1 (stereo not drawn),4.0%,29.7%,-2.6%,7.4
Cc1oc(-c2ccccc2Cl)nc1CSc1nc2c(c(=O)[nH]1)CCC2,?,-6.6%,-1.0%,-9.5
O=C(CC(NC(=O)c1ccccc1)c1ccccc1)NCc1ccccc1 (stereo not drawn),0.5%,19.1%,.,.
COc1ccc(NC(=O)C2CCCN(S(=O)(=O)c3cccs3)C2)cc1OC (stereo not drawn),-1.6%,-6.2%,9.3%,-8.2
O=C(Nc1ccc(F)cc1F)c1ccc(-n2cncn2)nc1,-3.0%,-2.7%,-5.0%,-5.9
CCn1c(=O)cc(C(F)(F)F)[nH]c1=S,-5.2%,9.8%,0.0%,6.4
Cc1ccc(NC(=O)C(=O)Nc2ccc(C)cn2)nc1,-1.0%,2.3%,-6.6%,4.0
O=c1[nH]nc(SCc2nnc(-c3ccc([N+](=O)[O-])cc3)o2)n1C1CCCCC1,0.4%,3.5%,4.7%,2.9
COCCNC(=O)CN(c1cccc(OC)c1)S(=O)(=O)c1ccc(C)cc1,1.2%,2.7%,1.1%,2.1
CCNC(=O)COC(=O)c1cc(S(=O)(=O)N2CCCCC2)ccc1C,2.4%,-7.8%,-7.9%,-3.9
Cc1ccc2nc(Cl)c(-c3ccccc3)cc2c1,2.4%,-5.3%,.,.
COc1ccccc1/C=C/C(=O)NCC(=O)N/N=C/c1ccc2c(c1)OCO2,1.2%,-17.9%,2.9%,-6.0
CCn1ccnc1CN1CCN(CC=C(C)C)C(CCO)C1 (stereo not drawn),-1.5%,-13.8%,1.9%,1.5
O=C(CN1CCCCC1)N1CCCc2c1c(=O)oc1ccc(OCc3ccccc3)cc21,-2.0%,1.4%,0.6%,-3.2
CCN(CC)S(=O)(=O)c1ccc2c(c1)c(=O)c(C(=O)NCCCN(C)c1ccccc1)cn2C,1.2%,-6.6%,2.6%,-12.7
NC(=O)c1oc2ccccc2c1NC(=O)c1ccc([N+](=O)[O-])o1,0.6%,-14.3%,18.9%,.
CSc1ccc(S(=O)(=O)N2CCC(C(=O)Nc3cccnc3)CC2)cc1,1.1%,6.8%,-5.6%,.
Cc1c(C(=O)Nc2ccc(F)cc2)oc2ccc(S(=O)(=O)N3CCC4(CC3)OCCO4)cc12,-0.7%,-5.9%,?,-0.9
COc1ccc(CN2CCNC(=O)C2CC(=O)NC2CCCC2)cc1OC (stereo not drawn),-5.4%,-11.9%,-9.1%,.
O=C(NCCCN1CCCC1=O)C1CCN(S(=O)(=O)c2ccc(Cl)cc2)CC1,-2.0%,2.8%,.,.
O=C(CCc1ccccc1Cl)Nc1ccc(S(=O)(=O)N2CCOCC2)cc1,1.4%,-1.4%,.,.
CCOC(=O)c1ccccc1NS(=O)(=O)c1cnn(CC)c1C,5.0%,21.4%,-4.1%,.
CCCCOC(=O)c1ccc(NC(=O)c2ocnc2C)cc1,6.9%,-3.2%,-28.7%,-4.3
Cc1ccc(OCCNC(=O)CCNC(=O)c2ccc(Cl)cc2)cc1,-2.0%,-1.0%,.,.
O=C1OC(c2cccs2)=N/C1=C\c1ccc(-c2cccc(Cl)c2)o1,0.0%,-4.6%,-7.0%,-11.1
O=C(CCCCCCCCCCC(=O)NCc1cccnc1)NCc1cccnc1,2.7%,-2.0%,9.1%,-9.3
COc1ccc(-n2nc(C(=O)NCC(=O)N3CCN(c4ccccc4)CC3)c3ccccc3c2=O)cc1OC,4.1%,0.6%,-20.6%,.
CNC(=O)COC(=O)c1cc(-c2ccccc2)nn1-c1ccccc1,5.6%,-0.1%,-1.2%,-4.0
COc1ccc(S(=O)(=O)N2CCOC2CNC(=O)C(=O)NCc2ccncc2)cc1 (stereo not drawn),4.0%,-5.9%,8.8%,.
O=C(COC(=O)CCN1C(=O)c2cccc([N+](=O)[O-])c2C1=O)NC1CCS(=O)(=O)C1 (stereo not drawn),?,-4.1%,-3.6%,7.2
O=C(O)CCC(=O)Nc1ccc(/C=C/C(=O)C2CC2)cc1,5.4%,-26.2%,-9.4%,4.5
CN(CC1CCCN(CCc2cccc(C(F)(F)F)c2)C1)C(=O)c1cc2ccccc2o1 (stereo not drawn),0.0%,-9.5%,17.0%,.
Cc1cc(S(=O)(=O)NCc2ccccc2)ccc1OCC(=O)Nc1cccc([N+](=O)[O-])c1,-0.3%,-5.9%,?,1.8
O=C(COc1ccc(S(=O)(=O)N2CCCC2)cc1)NCc1cccnc1,-2.7%,-11.9%,-0.3%,.
Cc1coc2c(C)c3oc(=O)c(CCC(=O)NCCCn4ccnc4)c(C)c3cc12,2.2%,3.0%,-0.9%,.
Cc1ccc(C(=O)NNC(=O)CSc2nnc3c(n2)[nH]c2ccc(F)cc23)cc1,3.5%,0.5%,0.6%,7.5
Cc1ccc(NS(=O)(=O)c2cc(Br)cnc2N)c(Cl)c1,0.0%,-8.7%,-3.4%,.
Cc1nc(=O)c(-c2ccccc2)c(C)n1-c1ccc(C(=O)O)cc1,1.2%,0.5%,-0.1%,1.4
COc1ccccc1CCNC(=O)c1cnn2c(C(F)F)cc(C)nc12,-2.3%,-21.1%,-28.6%,-0.2
COc1ccc(N(CC(=O)NCCSc2ccccn2)S(=O)(=O)c2ccc(C)cc2)cc1OC,-1.0%,1.3%,-3.9%,.
Cn1cccc1CC(=O)NNC(=O)Nc1ccc(Cl)cc1,-2.2%,2.9%,-0.5%,-2.3
CCCCOP(=O)(c1ccc(N(C)C)cc1)C(O)c1cc(OC)ccc1OC (stereo not drawn),-1.0%,2.8%,1.2%,.
COC(=O)CN1C(=O)[C@H]2[C@@H](c3ccc(C)o3)N3C(=O)CN(CC4CC4)C(=O)[C@@]3(C)[C@H]2C1=O,-0.8%,0.6%,0.6%,.
Cn1c(NC(=O)c2cccc(C(F)(F)F)c2)cc(=O)n(C)c1=O,-0.1%,?,-3.0%,-3.7
CC(C)Cn1cnc2c1c(=O)[nH]c(=O)n2Cc1ccccc1,-2.8%,-14.0%,1.2%,.
CC(=O)Nc1cc2c3c(c1)CC(=O)N3CCC2,0.8%,6.8%,-0.3%,.
O=C(CSc1cccc[n+]1[O-])c1ccc(Cl)s1,3.1%,-1.5%,-8.9%,-0.4
CCCCC[C@H]1CN(C2CCCCC2)C(=O)[C@@H]1CC(=O)NCc1ccc(OC)cc1,-2.1%,-19.8%,7.7%,.
CC(NC(=O)OC(C)(C)C)C(=O)Oc1cc2oc(=O)cc(-c3ccccc3)c2cc1Cl (stereo not drawn),?,?,17.1%,-1.9
O=C(CCN1C(=O)/C(=C/c2cccs2)SC1=S)Nc1ccc(C(=O)O)cc1,0.4%,19.9%,3.8%,.
COc1ccccc1CCC(=O)NNC(=O)c1ccncc1,-3.2%,-12.1%,.,.
CC(C)(C)S(=O)(=O)Cc1nc(-c2ccc(Cl)c(Cl)c2)cs1,7.4%,10.9%,-18.5%,-9.4
COc1ccc(-c2cc(C3CCN(c4cc(Cl)nc(N)n4)CC3)[nH]n2)cc1,-1.9%,-16.5%,20.5%,-5.7
CC(Oc1ccccc1Cl)C(=O)N1CCCN(C)CC1 (stereo not drawn),-0.3%,-0.3%,-1.3%,.

# Twelve entries already listed, sorted by count of non-hydrogen atoms, smallest number first.
structure,Rango-impB inh,Rango release inh,miR-21 reporter,GLA inh pH 4.5
CC(=O)Nc1cc2c3c(c1)CC(=O)N3CCC2,0.8%,6.8%,-0.3%,.
CC(Oc1ccccc1Cl)C(=O)N1CCCN(C)CC1 (stereo not drawn),-0.3%,-0.3%,-1.3%,.
CC(C)(C)S(=O)(=O)Cc1nc(-c2ccc(Cl)c(Cl)c2)cs1,7.4%,10.9%,-18.5%,-9.4
CC(C)Cn1cnc2c1c(=O)[nH]c(=O)n2Cc1ccccc1,-2.8%,-14.0%,1.2%,.
Cn1c(NC(=O)c2cccc(C(F)(F)F)c2)cc(=O)n(C)c1=O,-0.1%,?,-3.0%,-3.7
COc1ccccc1CCNC(=O)c1cnn2c(C(F)F)cc(C)nc12,-2.3%,-21.1%,-28.6%,-0.2
O=C(CCN1C(=O)/C(=C/c2cccs2)SC1=S)Nc1ccc(C(=O)O)cc1,0.4%,19.9%,3.8%,.
CCCCOP(=O)(c1ccc(N(C)C)cc1)C(O)c1cc(OC)ccc1OC (stereo not drawn),-1.0%,2.8%,1.2%,.
CCCCC[C@H]1CN(C2CCCCC2)C(=O)[C@@H]1CC(=O)NCc1ccc(OC)cc1,-2.1%,-19.8%,7.7%,.
CC(NC(=O)OC(C)(C)C)C(=O)Oc1cc2oc(=O)cc(-c3ccccc3)c2cc1Cl (stereo not drawn),?,?,17.1%,-1.9
COC(=O)CN1C(=O)[C@H]2[C@@H](c3ccc(C)o3)N3C(=O)CN(CC4CC4)C(=O)[C@@]3(C)[C@H]2C1=O,-0.8%,0.6%,0.6%,.
COc1ccc(N(CC(=O)NCCSc2ccccn2)S(=O)(=O)c2ccc(C)cc2)cc1OC,-1.0%,1.3%,-3.9%,.
